# CBX7 AlphaScr: blocks human CBX7 binding to H3K27me3 peptide. O95931. AlphaScreen His6-CBX7 / biotin-H3K27me3 peptide binding; active compounds read low. normalised signal (fraction of DMSO) (concentration not given with the values). 66,000 tested, 1.1% active. AID 1224903; in the data active = normalised signal below about 0.5;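 note: 100 nL library stock added to about 20 µL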
# Target sequence (O95931 whole entry, looked up): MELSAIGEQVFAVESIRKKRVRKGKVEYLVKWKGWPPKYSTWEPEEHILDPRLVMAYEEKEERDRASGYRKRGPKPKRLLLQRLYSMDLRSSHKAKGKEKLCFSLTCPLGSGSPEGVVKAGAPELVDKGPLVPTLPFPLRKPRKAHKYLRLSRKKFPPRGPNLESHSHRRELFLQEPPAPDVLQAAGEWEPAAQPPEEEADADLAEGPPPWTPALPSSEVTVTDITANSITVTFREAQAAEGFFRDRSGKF
# CBX7 AlphaScr z-score: further read-out of CBX7 AlphaScr, marked with its call; z-score; measured here: z-score of CBX7 signal; some inactives read as strong as hits; reference of the scale not given here;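 same signal on another scale; lower means less binding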
# The depositor's hits bear a star; & = joins results of further samples. A portion of the library. The share of hits here may be higher or lower than overall.
SMILES,CBX7 AlphaScr,CBX7 AlphaScr z-score
COc1ccc(-c2ccc(=O)n(CC(=O)Nc3ccc(F)c(Cl)c3)n2)cc1,1.05,1.4
Cc1ccc(Cc2c(C)nc3c(C(=O)N4CCN(c5ccccn5)CC4)cnn3c2C)cc1,0.914,-2.37
CC1=Nc2cc(C(=O)NCCc3ccc(C)cc3)ccc2Sc2ccc(C)cc21,0.892,-2.21
COc1ccc(C)cc1NC(=O)Cc1c(C(=O)O)[nH]c2ccccc12,1,0.0548
O=C(NCc1ccc2c(c1)OCO2)C1CCCN(c2nnc(-n3cccc3)s2)C1 (configuration not stated),0.989,-0.367
COc1ccc(CCNc2nc(SCC(=O)NCCC(C)C)nc3ccccc23)cc1OC,1.02,1.21
Cc1ccc(CSc2nc3ccncc3n2Cc2ccccc2C)cc1,0.825,-2.49
CN1CCc2c1nc1ccccc1c2NC(=O)CN1CCCCCC1,0.765,-3.25
Cc1cc(C)c2oc(-c3cc(NC(=O)c4cc5ccccc5o4)ccc3Cl)nc2c1,0.992,-0.226
Cc1ccc(C(C)C)c(OCC(=O)Nc2ccc(S(=O)(=O)Nc3onc(C)c3C)cc2)c1,0.919,-1.28
Cc1cc(C)cc(NC(=O)C(=O)NCCc2c[nH]c3ccccc23)c1,0.744,-2.77
CCOc1ccc(-n2nc(C(=O)Nc3ccc(C(F)(F)F)cc3)c3ccccc3c2=O)cc1,0.981,-0.245
c1ccc(Cc2nnc3sc(-c4cc5ccccc5o4)nn23)cc1,1.04,1.47
O=C(Nc1c(-c2ccc(F)cc2)nc2ccccn12)C1CC1,1.04,0.36
Cc1cc(Cl)ccc1OC(C)c1nc(-c2ccc(OCC(N)=O)cc2)no1 (configuration not stated),0.966,-0.425
O=C(NCc1cccs1)C1CCN(C(=O)c2cnn(-c3ccccc3)c2-n2cccc2)CC1,1.19,1.42
CC1CCCN(S(=O)(=O)c2ccc3c(c2)CCC(=O)N3)C1 (configuration not stated),0.995,-0.109
CC(C)CCN1CC(C(=O)N2CCN(c3ccccc3F)CC2)CC1=O (configuration not stated),1.01,0.326
COc1cccc(NC(=O)CCc2c(C)nc3cc(-c4ccc(Cl)cc4)nn3c2C)c1,1.05,0.963
Cn1nc(-c2ccc(OCC(=O)N3CCOCC3)cc2)c2ccccc2c1=O,1.03,1.53
COc1ccc(Nc2nc(-c3ccccc3F)nc3ccccc23)cc1Cl,0.987,-0.348
COc1cccc(-c2nc(CS(=O)(=O)CC(=O)N3CCN(C)CC3)c(C)o2)c1,1.02,0.794
Cc1ccc(Nc2nc(-c3ccc(NC(=O)c4ccccc4)cc3)cs2)cc1,1,0.0049
Cc1ccc2nc(-c3cccs3)c(Nc3ccccc3)n2c1,1.01,0.237
COc1ccc(C2C(C(=O)Nc3ccccc3OC)CCC(=O)N2c2ccc3c(c2)OCO3)cc1 (configuration not stated),1.05,2.12

# 3 of the compounds above, with each value named.
> O=C(Nc1c(-c2ccc(F)cc2)nc2ccccn12)C1CC1
- CBX7 AlphaScr: 1.04
- CBX7 AlphaScr z-score: 0.36
> Cc1cc(Cl)ccc1OC(C)c1nc(-c2ccc(OCC(N)=O)cc2)no1 (configuration not stated)
- CBX7 AlphaScr: 0.966
- CBX7 AlphaScr z-score: -0.425
> O=C(NCc1cccs1)C1CCN(C(=O)c2cnn(-c3ccccc3)c2-n2cccc2)CC1
- CBX7 AlphaScr: 1.19
- CBX7 AlphaScr z-score: 1.42

# Further structures.
SMILES,CBX7 AlphaScr,CBX7 AlphaScr z-score
Cc1ccc(NS(=O)(=O)c2ccc3c(c2)CCN3C(=O)C2CCC2)cc1,1.03,0.776
COc1ccc(OC)c(-c2cc(C(=O)NCc3ccc(Cl)cc3)no2)c1,1.03,0.88
CCOCCCNC(=O)C1CCN(C(=O)c2cc3sccc3n2Cc2ccc(F)cc2)CC1,0.978,-0.881
COc1ccccc1Nc1nc(C)cc(C)c1C(N)=O,1.04,1.5
COc1ccc(NCc2cc3ccccc3[nH]c2=O)cc1,0.811,-3.03
COc1ccc2[nH]c(C)c(CCNC(=O)c3ccc(C)cc3)c2c1,0.596,-7.35
Cc1cccc(CCNC(=O)c2ccc3c(c2)N(Cc2ccccc2F)C(=O)c2ccccc2S3)c1,0.973,-0.937
Cc1cc(C)nc(NC(=NS(=O)(=O)c2ccccc2)N2CCc3ccccc3C2)n1,1.02,0.55
Cc1ccc(C)c(NC(=O)c2nc3c(nnn3Cc3ccc(F)cc3)c(=O)[nH]2)c1,0.922,-1.78
COCCn1c(=O)[nH]c2cc(C(=O)NC3CCN(Cc4ccccc4)CC3)ccc2c1=O,0.986,-0.493
CCCCNS(=O)(=O)c1ccc2nc(-c3cccnc3)cc(C(=O)NCc3ccccc3)c2c1,0.983,-0.406
C=CCNC(=O)c1cc2c(n(-c3ccc(C)cc3)c1=O)CCCC2=O,1.02,0.501
CCCc1nnc(NC(=O)c2cccc(OCC)c2)s1,1.02,0.263
Nc1nonc1-c1noc(-c2cccc(COc3ccc(Cl)cc3Cl)c2)n1,1.03,0.748
CC(=O)Nc1nc2ccccc2n1CCN1CCOCC1,0.999,-0.0195
Cc1nnc(Nc2ccccc2O)c2ccccc12,1.02&1.03,0.281&1.07
Fc1ccccc1C1CC(c2cccc(Br)c2)Nc2ncnn21 (configuration not stated),0.966,-1.18
CCOc1ccc(N2C(=O)c3ccccc3C2Nc2ccccc2)cc1 (configuration not stated),0.924,-2.55
CCOc1ccc(CCNC(=O)Nc2ccc(F)cc2)cc1OCC,0.906,-1.58
Cc1cc(NC(=O)c2n[nH]c(=O)c3ccccc23)no1,1.08,0.483
Cc1cc(NC(=O)NC(=O)c2ccc(Cl)c(Cl)c2)n[nH]1,0.927,-1.13
COc1ccc(CN(C(=O)c2ccccc2F)C2CCS(=O)(=O)C2)cc1OC (configuration not stated),1,0.012
Cc1ccc2c(c1)c(C)c(C)n2CC(O)CN1CCOCC1 (configuration not stated),1.12,1.83
Cc1ccc(NC(=O)c2ccc(CNc3c(N4CCCCC4)c(=O)c3=O)cc2)cc1Cl,0.899,-0.233
Cc1nc2ccccc2c2c1C(=O)N(c1ccc(Cl)c(C(F)(F)F)c1)C2=O,0.901,-2.11
SMILES,CBX7 AlphaScr,CBX7 AlphaScr z-score
CC(C)Oc1ccc(C(=O)Nc2ccccc2-c2nc3ccccc3s2)cc1,1.21,4.15
O=C(CCc1nc2ccccc2[nH]1)Nc1ccc2c(c1)OCO2,0.802,-7.08
CC(C)c1ccc2oc(-c3ccc(Cl)c(NC(=O)c4cc5ccccc5o4)c3)nc2c1,0.802,-2.35
CC(Oc1ccccc1)C(=O)Nc1c2c(nn1-c1cccc(Cl)c1)CSC2 (configuration not stated),1,0.223
COc1ccc(NC(=O)Cn2ccc3ccccc3c2=O)c(OC)c1,1.18,1.63
CCC(=O)N1CCc2cc(S(=O)(=O)Nc3cc(OC)cc(OC)c3)ccc21,0.78,-0.889
Cc1ccc(NC(=O)CCNS(=O)(=O)c2ccc3c(c2)CCC(=O)N3)c(Br)c1,1.11,2.06
CCOc1ccc(NC(=O)C(=O)NCCN2CCOCC2)cc1,0.947,-1.22
CCc1noc(C)c1C(=O)N1CC(C)OC(C)C1 (configuration not stated),0.981,-0.62
O=C(Nc1c(-c2ccc(F)cc2)nc2ccccn12)c1ccc(Br)cc1,0.977,-0.535
O=C1CCCC2=C1C(c1ccccc1)CC(=O)N2c1ccc(F)cc1 (configuration not stated),1.02,0.156
Cc1ccccc1N(C)C(=O)c1ccc2c(=O)n3c(nc2c1)CCCCC3,1.05,0.0999
CCN(CC)C(=O)Cn1cnc2sc(C(=O)Nc3cccc(C(F)(F)F)c3)c(C)c2c1=O,0.977,-0.612
CCCn1c(NCc2ccc(OCC)cc2)nc2ccccc21,0.913,-1.64
O=C(Nc1ccccc1C(F)(F)F)N1CCC(N2CCCCC2)CC1,0.989,-0.499
O=c1[nH]c(CSc2ccccn2)nc2c1oc1ccccc12,1.02,0.248
CCCCNC(=O)Cn1cnc2sc(C)c(S(=O)(=O)N3CC(C)CC(C)C3)c2c1=O (configuration not stated),1.08,0.761
Cc1nc2ncnn2c(C)c1CCC(=O)NC1CCCC1,1.03,0.51
CCc1cccc(NC(=O)c2cccc3c2C(=O)N(C2CCCCC2)C3)c1,1.12,1.44
O=C(NCc1ccc2c(c1)OCO2)c1ccc2c(c1)N(Cc1ccc(F)cc1)C(=O)CS2,0.844,-1.55
COc1ccc(C(=O)N2CCN(c3ccc4nncn4n3)CC2)cc1OC,1.02,0.331
CCOC(=O)c1sc2ncnc(N3CCN(C(=O)OCC)CC3)c2c1C,0.993,-0.174
CCCc1ccc(OCC(O)CN2CCC(C)CC2)cc1 (configuration not stated),1.05,0.317
CCOc1ccc(-n2cc(C(=O)NCCN3CCOCC3)c3cc(OC)c(OC)cc3c2=O)cc1,1.24,2.47
CCOc1ccc(NC(=O)CCc2c(C)nc3cc(-c4ccccc4)nn3c2C)cc1,0.973,-0.645
SMILES,CBX7 AlphaScr,CBX7 AlphaScr z-score
Cc1onc(-c2ccccc2)c1C(=O)NCCC(c1ccccc1)c1ccccc1,0.952,-0.208
COC(=O)c1ccc(C(=O)Nc2ccc3nc(-c4ccccn4)[nH]c3c2)cc1,0.877,-5.54
COc1ccc(Cl)cc1C(=O)Nc1ccc(Cl)c(-c2nc3cc(C)c(C)cc3o2)c1,1.06,1.06
O=C1c2ccccc2C(Nc2ccc3c(c2)OCCO3)N1Cc1ccccc1Cl (configuration not stated),1.01,0.0536
Cc1cccc(C(=O)Nc2cccc(-c3nc4ccccc4s3)c2C)c1,1.08,1.64
CC(C)OCCCNC(=O)CCN1C(=O)COc2ccccc21,1.01,0.494
CCc1nc(NCCc2ccccc2)c(C#N)c2c1CCCC2,0.956,-0.517
CCc1ccc(-n2nc(-c3ccc(Cl)cc3)cc2-c2ccc(Cl)cc2)cc1,1.13,2.01
COc1cc(-c2nc(-c3ccccc3)c(-c3ccccc3)[nH]2)ccc1OCc1ccccc1Cl,0.669,-4.27
COc1ccc2c(c1)Cc1sc(NC(=O)c3ccc(Br)cc3)nc1-2,1.14,1.97
O=C(NCCCn1ccnc1)c1noc2c1CCc1ccccc1-2,1.15,0.976
OCc1cn(-c2ccccc2)nc1-c1cccnc1,0.944,-2.44
O=C(CCn1nc(-c2ccccc2)c2ccccc2c1=O)Nc1cccc(Cl)c1,1.05,1.33
Cc1cc2nn(-c3ccc(Cl)cc3)nc2cc1NC(=O)c1cccnc1,1.02,0.463
CC(C)(C)c1ccc2c(c1)N(CC(=O)NCCCN1CCC(Cc3ccccc3)CC1)C(=O)CO2,0.937,-1.09
O=C(NC1CCCc2ccccc21)c1ccc2c(c1)N(Cc1ccccc1)CCS2 (configuration not stated),0.928,-0.0956
Cc1ccsc1-c1ncnn1-c1ccc(Cl)cc1,0.777,-2.95
COc1ccc(C2=NOC(C(=O)N3CCC(Cc4ccccc4)CC3)C2)cc1 (configuration not stated),0.943,-0.759
Cc1ccc(NC(=O)c2cc(S(=O)(=O)N3CCc4ccccc4C3)ccc2F)cc1F,1.05,0.499
COC(=O)Cn1cnc2sc(C)c(S(=O)(=O)N3CCN(C)CC3)c2c1=O,1.06,2.35
CNS(=O)(=O)c1cc(-c2nnc(Nc3cccc(C(F)(F)F)c3)c3ccccc23)ccc1C,0.84,-1.8
Cc1ccc(S(=O)(=O)CCc2nnc(NC(=O)C3CCCCC3)s2)cc1C,1.1,1.11
O=C1CN(C(=O)c2ccc(-c3ccccc3)cc2)C(c2ccccc2)c2cc(Br)ccc2N1 (configuration not stated),1,0.0241
Cc1nc2ncnn2c(C)c1CCC(=O)N1CCN(Cc2ccccc2)CC1,1,0.0188
Cc1ccc2oc(-c3ccc(Cl)c(NC(=O)c4cccnc4)c3)nc2c1,1.05,1.49

# Part of the list above, as tab-separated lines:
mol	CBX7 AlphaScr	CBX7 AlphaScr z-score
O=C1c2ccccc2C(Nc2ccc3c(c2)OCCO3)N1Cc1ccccc1Cl (configuration not stated)	1.01	0.0536
Cc1cccc(C(=O)Nc2cccc(-c3nc4ccccc4s3)c2C)c1	1.08	1.64
CC(C)OCCCNC(=O)CCN1C(=O)COc2ccccc21	1.01	0.494

# Continuation.
SMILES,CBX7 AlphaScr,CBX7 AlphaScr z-score
O=C(NC1CCCCC1)C(c1ccc(Cl)cc1)N1CCN(c2ccccc2)CC1 (configuration not stated),1.01,0.434
Cc1cccc(C(=O)Nc2nnc(/C=C/c3ccccc3)s2)c1,0.997,-0.0771
CCN1C(=O)C(O)(CC(C)=O)c2ccccc21 (configuration not stated),1.01,0.148
Cc1ccc(-c2nc(NCc3ccccc3)c3ccccc3n2)cc1,1.06,2.5
CC1CC(C)CN(S(=O)(=O)c2ccc3c(c2)N(CC(=O)NC(C)C)C(=O)CO3)C1 (configuration not stated),0.989,-0.322
Cc1ccc(-n2ncc(C(=O)Nc3ccccc3C)c2C2CCN(C(=O)OC(C)(C)C)CC2)cc1,1.01,0.241
CCOC(=O)c1cnc2c(C)c(Cl)ccc2c1Nc1cccc(C)c1C,1.06,0.144
COc1ccccc1N1CCN(C(=O)C2CCN(S(=O)(=O)c3cnc[nH]3)CC2)CC1,1.01,0.0579
Cc1cc(NCc2ccccc2)nc(NCc2ccccc2)n1,1.08,2.08
O=C(Cn1ncc2c1-c1ccccc1OC2)NCc1cccnc1,0.868,-1.65
Cc1ccccc1-c1nc(-c2ccncc2)no1,1.02,0.0216
COc1ccccc1Nc1cc(C(=O)NCCN(C)Cc2ccccc2)c2ccccc2n1,1.19,0.193
CCc1ccc(NS(=O)(=O)c2ccc3[nH]cc(C(=O)N(CC)CC)c(=O)c3c2)cc1,0.921,-0.343
Cc1ccc(Nc2ncc(C(=O)NCc3ccc(F)cc3)c3ccccc23)cc1Cl,1.03,0.966
COc1ccc(OC)c(NC(=O)c2cn(-c3ccc(F)cc3F)c(=O)c3ccccc23)c1,0.823,-2.43

# Some of the entries above in a different format.
# Screens in order: CBX7 AlphaScr | CBX7 AlphaScr z-score
- CCOc1ccc(CCNC(=O)Nc2ccc(F)cc2)cc1OCC
 : 0.906 | -1.58
- Cc1cc(NC(=O)c2n[nH]c(=O)c3ccccc23)no1
 : 1.08 | 0.483
